Assay outcomes as filed in PubChem.
RE007 growth inh: less growth of the S. pombe RE007 Vpr strain; S. pombe RE007 Vpr strain, BacTiter-Glo ATP luminescence, 24 h; control for the full effect not named in the record; Potency, µM (highest dose often 92.2 µM), for the others: at the top dose activity change, negative = less growth; hit rate 0.21% among 360,000; active = well fitted falling curve with a large enough effect; inconclusive = small, poorly fitted or top-dose-only effect; inactive = no such curve, though single readings can be large or run the other way;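 also: % is scaled to controls: 0 for no effect and ±100 for the full control effect; nearly all actives have a fitted effect of over 50% in size; the assay follows cell death caused by Vpr and the record does not say whether a fall means rescue or toxicity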
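Fission yeast RE007 carrying one integrated HIV-1 vpr copy, seeded at OD 0.01 in PMG+AL medium with 23 nL pinned compound. Grown 24 h at 30 degrees; viability read by BacTiter-Glo luminescence after 5 min.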
Cruzain Triton: inhibitors of Trypanosoma cruzi cruzain with detergent; AID 1478; purified cruzain, Z-FR-AMC fluorescence, 0.01% Triton; P25779; hit rate 0.43% among 200,000; Potency, µM, without a hit: max response, negative = inhibition, hits mostly inhibitors;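 also: plate controls were neutral wells for no effect and buffer without enzyme for full effect; nearly all actives have a fitted effect of over 40% in size; top concentration of the series not given in the record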
Target sequence (P25779 123-467 limits assumed): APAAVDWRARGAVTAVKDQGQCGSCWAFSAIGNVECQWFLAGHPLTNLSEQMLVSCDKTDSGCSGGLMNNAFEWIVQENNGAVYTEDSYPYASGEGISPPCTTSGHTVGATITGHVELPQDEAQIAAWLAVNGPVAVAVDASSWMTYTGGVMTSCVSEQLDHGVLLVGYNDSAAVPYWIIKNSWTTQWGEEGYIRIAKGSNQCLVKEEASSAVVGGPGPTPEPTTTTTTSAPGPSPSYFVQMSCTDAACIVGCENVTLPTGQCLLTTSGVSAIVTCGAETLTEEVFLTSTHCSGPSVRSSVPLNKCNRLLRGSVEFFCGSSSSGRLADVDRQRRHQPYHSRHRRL
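Z-FR-AMC hydrolysis (2 uM substrate) by cruzain (1.5 nM) monitored kinetically at ex 360/em 450 nm after 15 min room-temperature compound exposure; 0.01% Triton X-100, pH 5.5, 5 mM DTT.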
SARS PLpro yeast: blocks SARS-CoV papain-like protease in a yeast assay. S. cerevisiae expressing SARS-CoV PLpro, growth rescue; control for the full effect not named in the record. hit rate 0.19% among 330,000. Potency, µM (top dose mostly 32.9 µM), inactives show top-dose activity, positive = growth rescue; active means well fitted rising curve with a large enough effect; inconclusive means small, poorly fitted or top-dose-only effect; inactive means no such curve, though single readings can be large or run the other way; also: 0% is about no effect; nearly all actives have a fitted effect of over 55% in size; growth read by luminescence after 48 h
Lassa entry inh: Lassa virus entry inhibition. Potency, µM (titrated, usually from 37.9 µM), inactives show top-dose activity change, negative = inhibition, most hits filed as inhibitors. hit rate 1.2% among 300,000. Lassa virus pseudotype entry inhibition, cell reporter; control for the full effect not named in the record; active means well fitted inhibition curve with a large enough effect; inconclusive means small, poorly fitted or top-dose-only effect, or effect the other way; inactive means flat fitted curve, though single readings scatter; tested in HEK293 cells; also: % is scaled to controls: 0 for no effect and ±100 for the full control effect; nearly all actives have a fitted effect of over 50% in size; luciferase read-out
StopGo reporter: lowers the luciferase signal of an FMDV 2A StopGo reporter. human cells with a luciferase reporter of 2A StopGo recoding; control for the full effect not named in the record. Potency, µM (doses to about 57.9 µM), inactives show top-dose signal change, negative = less light. hit rate 1.2% among 410,000; active = well fitted falling curve with a large enough effect; inconclusive = small, poorly fitted or top-dose-only effect; inactive = no such curve, though single readings can be large or run the other way; tested in HEK293T cells; also: % is scaled to controls: 0 for no effect and ±100 for the full control effect; nearly all actives have a fitted effect of over 45% in size; luciferase light after 4 h
MARV entry inh: Marburg virus entry inhibition | Marburg virus pseudotyped entry inhibition, cell reporter; control for the full effect not named in the record; about a third of the inactives were read at about 46 µM | AID 540276 | Potency, µM (top dose mostly 37.8 µM), for the others: at the highest dose activity change, negative = inhibition, hits mostly inhibitors | hit rate 1.8% among 300,000; active = well fitted inhibition curve with a large enough effect; inconclusive = small, poorly fitted or top-dose-only effect, or effect the other way; inactive = flat fitted curve, though single readings scatter; tested in HEK293 cells; about a fifth of its hits are not listed in these tables; also: % is scaled to controls: 0 for no effect and ±100 for the full control effect; luciferase read-out
NS1 function inh: influenza NS1 inhibition; Potency, µM (highest dose often 46.1 µM), for inactives: at the top dose activity, positive = more growth; S. cerevisiae slowed by influenza A NS1, growth recovery by OD600; AID 2326; hit rate 0.4% among 270,000; active means well fitted rising curve with a large enough effect; inconclusive means small, poorly fitted or top-dose-only effect; inactive means no such curve, though single readings can be large or run the other way; also: nearly all actives have a fitted effect of over 50% in size
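S. cerevisiae expressing influenza A NS1, grown in glucose, washed, then diluted 1:100 into pH 6.0 -URA galactose medium with 23 nl compound. Growth recovery read as OD600; NS1-free strain serves as control.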
Cruzain noTriton: cruzain (T. cruzi) inhibition without detergent | P25779 | purified cruzain, Z-FR-AMC fluorescence, no detergent | Potency, µM, inactives show max response, negative = inhibition, actives largely listed as inhibitors | hit rate 2.3% among 200,000 | AID 1476;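 also: plate controls were enzyme without inhibitor for no effect and buffer without enzyme for full effect; nearly all actives have a fitted effect of over 40% in size; top concentration of the series not given in the record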
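Purified cruzain at 1.5 nM, pre-incubated 15 min with compound at room temperature in 100 mM sodium acetate pH 5.5, 5 mM DTT, 0.00005% Triton X-100. Reaction started with 2 uM Z-FR-AMC; AMC fluorescence increase over 60 s gives rate.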
Starred values were filed as active, the others as inactive; ? = inconclusive; · = not tested or not shown; & = joins results of further samples; [ ] = remark or other dose. Unless noted, calls follow the shape of the dose curve; as a rule, active = well fitted curve in the direction sought with a large enough effect; inconclusive = small, poorly fitted or top-dose-only effect, or another doubt; inactive = no such curve, though single readings can be large; an effect the other way counts as inactive or inconclusive. Potency is read from the fitted curve at half-maximal effect.

The line under a structure holds: RE007 growth inh, Cruzain Triton, SARS PLpro yeast, Lassa entry inh, StopGo reporter, MARV entry inh, NS1 function inh, Cruzain noTriton
1: O=C(Nc1ncc(Cc2ccccc2Cl)s1)C1=NCCN1
  -19%, -5.0%, -107%, ?, 0%, ?, -30%, 9%
2: Cc1c(NC(=O)NC(C)N2C(=O)C3C4C=CC(C4)C3C2=O)c(=O)n(-c2ccccc2)n1C (stereo unspecified)
  -14%, 2.5%, 1%, 3%, -7%, 13%, 5%, 7%
3: Cc1cc(NC(=O)c2cc(-c3cccc(Cl)c3)on2)nn1Cc1ccc(Cl)cc1
  ·, -2.9%, ·, 10%[46.1 µM], ?, -20%[46.1 µM], ·, -9%
4: C/C(=N\NC(=O)CC(C)C)c1c(C(F)(F)F)[nH]n(-c2nc3ccccc3s2)c1=O
  ?, ·, -2%, ·, -25%, ·, 3%, ·
5: CCc1cccc(C)c1NC(=O)CN1C(=O)C2(SCC(=O)N2c2cc(C)cc(C)c2)c2ccccc21 (stereo unspecified)
  ·, -3.1%, ·, ?, 0%, ·, ·, -16%
6: CCCCNC(=O)CN(c1cc(C(F)(F)F)ccc1Cl)S(C)(=O)=O
  9%, -3.3%, 7%, 8%, 8%, ?, 1µM*, 3%
7: O=C(O)CC1(CC(=O)Nc2cc3ccccc3cn2)CCCCC1
  -12%, ·, -2%, -5%, 4%, -15%[46.1 µM], 6%, ·
8: CCOC(=O)c1c(-c2ccc(C)o2)csc1NC(=O)CSc1nncs1
  -19%, -15%, -6%, ?, ·, -24%, -51%, 11%
9: CCOc1ccccc1Nc1nnc(SCC(=O)NCC2CCCO2)s1 (stereo unspecified)
  3%, ·, ·, -7%, -28%, -1%, ·, ·
10: CCCCn1c(O)c(C(CC)=Nc2ccc3c(c2)CCC3)c(=O)[nH]c1=O
  6%, -5.8%, 0%, 1.3µM*, -8%, -14%, -6%, -8%
11: COc1ccc(CN2CCn3ncc(C(=O)Nc4ccc(Cl)cc4Cl)c3C2=O)cc1
  7%, 6.7%, 4%, 14%, -18%, ?, -2%, 5µM*
12: Nc1cc(C(=O)O)c(Oc2ccc(Cl)cc2Cl)cc1C(=O)O
  -13%, -6.4%, 14%, ?, -16%, ?, 21%, 4%
13: C=CC(N)CCC(=O)O (stereo unspecified)
  ·, 6.3%&2.6%, ·, ?, -12%, ?, -12%, 3%&-2%
14: Cc1cc(C(=O)NC2=NCCS2)cs1
  3%, -1.9%, 4%, ?, -9%, -29%, 11%, -4%
15: CCN1C(=O)[C@H]2[C@@H](c3ccc(C)cc3)N3C(=O)N(c4ccc(C(F)(F)F)cc4)C(=O)[C@@]3(CC(C)C)[C@H]2C1=O
  10%, ·, -5%, ·, -14%, ·, -19%, ·
16: COc1cccc(Cn2c(NCc3ccc(C)cc3)nc3c2c(=O)n(C)c(=O)n3C)c1
  ·, -5.2%, ·, -6%[46.1 µM], -21%, 3%[46.1 µM], ·, -16%
17: CCC(=O)Nc1cccc(-n2nnnc2SCC(=O)NCc2ccco2)c1
  19%, 2.8%, 1%, ?, 17%, 4%, -7%, -7%
18: CCn1c(=O)c(C(=O)CN2CCc3ccccc32)c(N)n(Cc2ccccc2)c1=O
  -17%, -6.2%, -13%, -7%, -10%, -27%[46.1 µM], 7%, -27%
19: CCSc1n[nH]c2nc3c(c(=O)n12)C1(CCCCC1)Cc1ccccc1-3
  -5%, ·, 0%, ·, 0%, ·, 0%, ·
20: CN1C(=O)[C@H]2[C@@H](C3CC3)N3C(=O)CN(Cc4ccccc4)C(=O)[C@@]3(C)[C@H]2C1=O
  -21%, ·, -7%, ·, -5%, ·, -19%, ·
21: CCOc1ccccc1NC(=O)CN1CCc2ccccc2C1
  7%, ·, 0%, -15%, ?, ?, -39%, ·
22: Cc1cc2oc(=O)c(CC(=O)NCCCN(C)C)c(C)c2c2occ(C(C)(C)C)c12
  2%, ·, -1%, ?, -10%, ·, 2%, ·
23: Cc1cccc(C(=O)Nc2nc(-c3nnn(-c4cc(C)ccc4C)c3C)ns2)c1
  ·, -1.2%, ·, -6%[46.1 µM], ?, ·, ·, -1%
24: CNC(=S)N/N=C1\CC(c2ccccc2)Oc2ccccc21 (stereo unspecified)
  -4%, ·, 3%, -7%, -29%, -13%[46.1 µM], 16%, ·
25: O=[N+]([O-])c1cccc(/C=N/Nc2ncc(Br)cn2)c1
  -2%, ·, 1%, ·, 82%[activator], ·, -14%, ·
26: C=CCNC(=O)/C(C#N)=C/c1ccccc1Cl
  -15%, ·, -1%, 1%, -13%, 12%[46.1 µM], -40%, ·
27: COc1ccc(NS(=O)(=O)c2ccc(-c3coc(C)n3)cc2)cc1
  3%, ·, 0%, ·, 9%, ·, 8%, ·
28: COC(=O)[C@@H](NC(=O)NCc1cccc(OC)c1)C(C)C
  3%, 2.8%, 5%, 1%, 5%, 0%, -4%, 10%
29: CC(NC(=O)c1ccccc1)c1ccc(Br)cc1 (stereo unspecified)
  23%, ·, -8%, -3%, -12%, 23%[46.1 µM], ·, ·
30: CC(=O)N1CCN(Cc2nc3cc(NS(C)(=O)=O)ccc3n2C)CC1
  3%, 5.6%, 6%, 25%, ·, 0%, -48%, -1%
31: COc1ccc(C(=O)N2CCc3cc(OC)c(OC)cc3C2c2cccc([N+](=O)[O-])c2)cc1OC (stereo unspecified)
  0%, 3.4%, 7%, ?, ?, ?, 0%, ?
32: CCOC(=O)N1N=C(CC)CC1(O)C(F)(F)F (stereo unspecified)
  1%, 3.8%, 16%, ?, -12%, 16%, 1%, 6%
33: CCOC(=O)CCNCc1ccc(F)cc1
  8%, ·, -1%, 16%, -13%, 5%, 1%, ·
34: COc1ccc(C(=O)C2CCN(C(=S)NCCc3ccc(OC)c(OC)c3)CC2)cc1
  2%, ·, 0%, ?, -24%, ?, 1%, ·
35: CCC(C)OC(=O)C1=C(C)O[C@]23OC(N)=C(C#N)[C@]12C(=O)c1ccccc13 (stereo partly specified)
  22%, -9.3%, 2%, -4%, -21%, 12%, 5%, 2%
36: Cn1c(SCC(=O)Nc2ccc3c(c2)OCO3)nnc1-c1cnccn1
  -3%, -3.3%, -1%, -1%, -14%, 3%, -3%, -9%
37: CC1CCN(S(=O)(=O)c2cn(C)c(=O)n(C)c2=O)CC1
  -11%, 0.5%, -1%, ·, -18%, ·, 2%, -2%
38: CC(=O)OCCCn1c(C)[n+](C)c2cc(Cl)c(Cl)cc21
  -5%, ·, -1%, ·, 3%, ·, -1%, ·
39: O=C(NC(=S)Nc1cc(Cl)ccc1N1CCOCC1)c1ccccc1[N+](=O)[O-]
  -6%, ·, 4%, ·, -17%, ·, 6%, ·
40: CCOC(=O)CSc1nnc(COc2ccc3ccccc3c2)o1
  4%, ·, -3%, -2%[46.1 µM], 5%, 3%[46.1 µM], -5%, ·
41: Cc1ccccc1NC(=S)NCC(c1cccnc1)N1CCOCC1 (stereo unspecified)
  13%, 0.9%, -4%, -5%, -9%, 2%, 6%, 18%
42: O=C(CSc1nnc(COc2ccccc2F)n1-c1ccccc1)NCc1ccco1
  5%, -3.6%, 8%, 6%, -3%, 22%, -7%, -5%
43: COc1ccc(NC(=O)C2=CC(c3ccc(C)cc3)=NS(=O)(=O)N2C)cc1OC
  0%, ·, -2%, ·, ?, ·, -22%, ·
44: COc1ccccc1NC(=O)CCn1cnc2ccccc2c1=O
  ·, -1.2%, -3%, 12%[46.1 µM], -18%, ·, ·, -15%
45: COc1ccc(NC(=O)CN2CCN(c3ccc(F)cc3)CC2)cc1Cl
  -13%, -3.6%, -7%, -15%, -25%, -4%[46.1 µM], -10%, 9%
46: N=c1oc2ccccc2cc1-c1nc2ccccc2c(=O)[nH]1
  -6%, -4.2%, 10%, ·, 17%, ·, -13%, -6%
47: O=c1cc(-c2ccccc2)[nH]n2cnnc12
  2%, ·, 2%, 10%[46.1 µM], 7%, -6%[46.1 µM], 6%, ·
48: O=C(O)c1cc(NC2(c3ccccc3)C(=O)c3ccccc3C2=O)ccc1Cl
  ·, -1.4%, ·, ?, 2%, ·, ·, -15%
49: COc1ccc(-c2cn3cccc(C)c3n2)cc1F
  -27%, ·, -3%, -3%, 0%, 6%[46.1 µM], 11%, ·
50: CC(=O)c1nnn(-c2cccc([N+](=O)[O-])c2)c1C
  1%, ·, -2%, 3%, -11%, 5%[46.1 µM], ·, ·
51: COc1cc(C(=O)Oc2ccccc2/C=N/NC(=O)c2ccc(C)cc2)cc(OC)c1OC
  6%, -5.3%, 6%, 8.9µM*, 21%, ?, -25%, ?
52: COc1ccc(-c2ccc(=O)n(CC(=O)Nc3ccc(OC)c(OC)c3)n2)cc1
  ·, -0.1%, ·, -30%[46.1 µM], -12%, ·, ·, -5%
53: Cc1cccc(C(C)C)c1NC(=O)COC(=O)COc1ccc2c(C)cc(=O)oc2c1
  -12%, -4.9%, -2%, -5%, 9%, ·, 0%, -7%

Among those listed so far, these contain a nitro group on carbon:
The line under a structure holds: RE007 growth inh, Cruzain Triton, SARS PLpro yeast, Lassa entry inh, StopGo reporter, MARV entry inh, NS1 function inh, Cruzain noTriton
25: O=[N+]([O-])c1cccc(/C=N/Nc2ncc(Br)cn2)c1
  -2%, ·, 1%, ·, 82%[activator], ·, -14%, ·
31: COc1ccc(C(=O)N2CCc3cc(OC)c(OC)cc3C2c2cccc([N+](=O)[O-])c2)cc1OC (stereo unspecified)
  0%, 3.4%, 7%, ?, ?, ?, 0%, ?
39: O=C(NC(=S)Nc1cc(Cl)ccc1N1CCOCC1)c1ccccc1[N+](=O)[O-]
  -6%, ·, 4%, ·, -17%, ·, 6%, ·
50: CC(=O)c1nnn(-c2cccc([N+](=O)[O-])c2)c1C
  1%, ·, -2%, 3%, -11%, 5%[46.1 µM], ·, ·
